# Bioassay records from PubChem BioAssay.
# SARS PLP yeast – blocks SARS-CoV papain-like protease in a yeast assay; S. cerevisiae expressing SARS-CoV PLpro, growth rescue; control for the full effect not named in the record; Potency, µM (top dose mostly 32.9 µM), for inactives: at the highest dose activity, positive = growth rescue; 330,000 tested, 0.19% active; active means well fitted rising curve with a large enough effect; inconclusive means small, poorly fitted or top-dose-only effect; inactive means no such curve, though single readings can be large or run the other way; further: 0% is about no effect; nearly all actives have a fitted effect of over 55% in size; growth read by luminescence after 48 h
# Cruzain inh Det – inhibitors of Trypanosoma cruzi cruzain with detergent; 200,000 tested, 0.43% active; Potency, µM, for the others: max response, negative = inhibition, most hits filed as inhibitors; purified cruzain, Z-FR-AMC fluorescence, 0.01% Triton; P25779;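 further: plate controls were neutral wells for no effect and buffer without enzyme for full effect; nearly all actives have a fitted effect of over 40% in size; top concentration of the series not given in the record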
# Target sequence (P25779 123-467 limits assumed): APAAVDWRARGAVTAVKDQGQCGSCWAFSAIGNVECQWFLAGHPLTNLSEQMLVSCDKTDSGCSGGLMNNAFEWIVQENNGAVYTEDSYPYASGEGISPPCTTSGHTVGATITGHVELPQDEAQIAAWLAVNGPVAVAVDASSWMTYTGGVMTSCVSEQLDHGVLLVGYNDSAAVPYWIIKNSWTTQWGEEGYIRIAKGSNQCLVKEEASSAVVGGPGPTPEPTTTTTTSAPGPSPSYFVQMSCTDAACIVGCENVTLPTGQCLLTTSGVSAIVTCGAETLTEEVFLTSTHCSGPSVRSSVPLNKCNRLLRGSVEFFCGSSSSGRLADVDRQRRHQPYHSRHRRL
#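 Purified cruzain (1.5 nM final) was preincubated with compounds for 15 min at room temperature in 100 mM sodium acetate pH 5.5, 5 mM DTT, 0.01% Triton X-100. Reaction started with 2 uM Z-FR-AMC; AMC fluorescence change over 60 s gave activity.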
# NS1 function inh – blocks influenza NS1 protein function; Potency, µM (series often up to 46.1 µM), for the others: at the highest dose activity, positive = more growth; S. cerevisiae slowed by influenza A NS1, growth recovery by OD600; 270,000 tested, 0.4% active; AID 2326; active means well fitted rising curve with a large enough effect; inconclusive means small, poorly fitted or top-dose-only effect; inactive means no such curve, though single readings can be large or run the other way; further: nearly all actives have a fitted effect of over 50% in size
#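 In this qHTS, NS1 from influenza A is expressed in budding yeast, where it slows growth. Cells are switched from glucose to 2% galactose medium (pH 6.0, -URA), treated with compound, and growth recovery is read at OD600.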
# RE007 growth inh – less growth of the S. pombe RE007 Vpr strain | S. pombe RE007 Vpr strain, BacTiter-Glo ATP luminescence, 24 h; control for the full effect not named in the record | Potency, µM (doses to about 92.2 µM), for the others: at the highest dose activity change, negative = less growth | 360,000 tested, 0.21% active | AID 651644; active = well fitted falling curve with a large enough effect; inconclusive = small, poorly fitted or top-dose-only effect; inactive = no such curve, though single readings can be large or run the other way;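 further: on the % scale 0 is the no-effect control and ±100 the full control effect; nearly all actives have a fitted effect of over 50% in size; the assay follows cell death caused by Vpr and the record does not say whether a fall means rescue or toxicity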
#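 Fission yeast strain RE007, carrying one chromosomally integrated HIV-1 vpr copy, was seeded at OD 0.01 in PMG+AL medium with 23 nL pinned compound. After 24 h at 30 °C and 99% humidity, viability was read by BacTiter-Glo luminescence.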
# 2A StopGo – FMDV 2A StopGo reporter, luciferase signal. human cells with a luciferase reporter of 2A StopGo recoding; control for the full effect not named in the record. Potency, µM (top dose mostly 57.9 µM), inactives show at the top dose signal change, negative = less light. 410,000 tested, 1.2% active; active = well fitted falling curve with a large enough effect; inconclusive = small, poorly fitted or top-dose-only effect; inactive = no such curve, though single readings can be large or run the other way; tested in HEK293T cells; further: on the % scale 0 is the no-effect control and ±100 the full control effect; nearly all actives have a fitted effect of over 45% in size; luciferase light after 4 h
# LASV entry inh – inhibitors of Lassa virus binding or cell entry; AID 540256; Lassa virus pseudotype entry inhibition, cell reporter; control for the full effect not named in the record; 300,000 tested, 1.2% active; Potency, µM (doses to about 37.9 µM), without a hit: top-dose activity change, negative = inhibition, usual class: inhibitors; active means well fitted inhibition curve with a large enough effect; inconclusive means small, poorly fitted or top-dose-only effect, or effect the other way; inactive means flat fitted curve, though single readings scatter; tested in HEK293 cells; further: on the % scale 0 is the no-effect control and ±100 the full control effect; nearly all actives have a fitted effect of over 50% in size; luciferase read-out
# Cruzain noTriton – blocks cruzain activity in detergent-free assay; P25779; purified cruzain, Z-FR-AMC fluorescence, no detergent; Potency, µM, for the others: max response, negative = inhibition, actives largely listed as inhibitors; 200,000 tested, 2.3% active;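 further: plate controls were enzyme without inhibitor for no effect and buffer without enzyme for full effect; nearly all actives have a fitted effect of over 40% in size; top concentration of the series not given in the record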
#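 Detergent-free condition (0.00005% Triton X-100) in acetate buffer pH 5.5 with DTT. 1.5 nM enzyme and compound were pre-mixed 15 min, then 2 uM Z-FR-AMC substrate added; reaction progress from fluorescence change between first and third reads (60 s).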
# Marburg entry inh – inhibitors of Marburg virus binding or cell entry | Marburg virus pseudotyped entry inhibition, cell reporter; control for the full effect not named in the record; about a third of the inactives were read at about 46 µM | Potency, µM (highest dose often 37.8 µM), for the others: at the highest dose activity change, negative = inhibition, hits mostly inhibitors | 300,000 tested, 1.8% active; active = well fitted inhibition curve with a large enough effect; inconclusive = small, poorly fitted or top-dose-only effect, or effect the other way; inactive = flat fitted curve, though single readings scatter; tested in HEK293 cells; about a fifth of its hits are not listed in these tables; further: on the % scale 0 is the no-effect control and ±100 the full control effect; luciferase read-out
# The depositor's hits bear a star; ? = inconclusive; nt = not tested or not shown; & = joins results of further samples; [ ] = another dose, or the depositor's remark. Unless noted, the call rests on the fitted dose curve; in most records, active means well fitted curve in the direction sought with a large enough effect; inconclusive means small, poorly fitted or top-dose-only effect, or another doubt; inactive means no such curve, though single readings can be large; an effect the other way counts as inactive or inconclusive. Potency means the concentration at half of the fitted maximal effect.
SMILES,SARS PLP yeast,Cruzain inh Det,NS1 function inh,RE007 growth inh,2A StopGo,LASV entry inh,Cruzain noTriton,Marburg entry inh
Cn1c(SCC(=O)N(C2CCCCC2)C2CCCCC2)nnc1-c1cccs1,3%,0.9%,-7%[9.22 µM],12%,nt,?,2%,?
COc1ccc(-c2nc(CS(=O)CC(=O)NCc3ccc4c(c3)OCO4)c(C)o2)cc1OC (configuration not stated),1%,nt,14%,-4%,5%,nt,nt,nt
CSc1ncc(/C=C2/C(=O)NC(=O)N(c3ccc(C(C)C)cc3)C2=O)cn1,-3%,-4.9%,8%,nt,-23%,-6%,6%,26%
COc1ccc(NC(=O)CSCc2cnn(-c3ccccc3)c2-n2cccc2)cc1,nt,-7.1%,nt,nt,-15%,4%[46.1 µM],1%,-2%[46.1 µM]
O=C(CSCc1ccccc1)Nc1ccc2c(c1)OCO2,4%,-4.5%,-6%,-10%,73%[activator],?,-16%,19%
Cc1ccc(N2CC(NC(=O)C3CC3)CC2=O)cc1C (configuration not stated),nt,1.2%,nt,nt,-12%,34%[46.1 µM],4%,nt
Cn1c(Cn2c(C(F)(F)F)nc3ccccc32)nc2ccccc21,-1%,1.1%,11%,-3%,-19%,5%,-2%,4%
CNC(=S)Nc1ccc(OC)c(OC)c1,2%,1.0%,13%,1%,-2%,?,0%,-4%
O=c1c2oc3ccccc3c2n(Cc2ccccc2Cl)c(=O)n1Cc1ccc2c(c1)OCO2,nt,1.0%,nt,nt,-6%,11%[46.1 µM],-1%,nt
O=C(CSc1nnc(C2COc3ccccc3O2)o1)N1CCOCC1 (configuration not stated),13%,8.4%,?,10%,9%,-3%,2%,9%
NS(=O)(=O)c1ccc(NC(=S)NCc2ccccc2)cc1,15%,4.6%,6%,29%,6%,9%,-13%,-3%
Cc1cc(C)c(-c2csc(NC(=O)C3=NN(c4ccccc4)C(=O)CC3)n2)c(C)c1,7%,-8.4%,?,5%,?,nt,-22%,-1%
Cc1ccccc1CN(c1ccc(C(=O)N/N=C/c2ccc(OCC(N)=O)cc2)cc1)S(C)(=O)=O,0%,nt,-1%,7%,0%,nt,nt,nt
COCCCn1nnnc1SCC(=O)Nc1nc(C)c(C)s1,23%,-3.5%,4%,28%,30%,21%,-7%,-3%
Cc1ccc(S(=O)(=O)NC(=O)NCc2ccco2)cc1,nt,nt,nt,21%,11%,0%[46.1 µM],nt,6%[46.1 µM]
Cc1cc(C)cc(NC2=CC(=O)CC(c3ccco3)C2)c1 (configuration not stated),-1%,1.1%,-7%,2%,-11%,?,4%,-4%
CCN(Cc1ccccc1)C(=O)COC(=O)c1cc(Cl)nc(Cl)c1,3%,nt,nt,1%,-12%,21%,nt,-1%
CCOc1cccc(C2c3c(oc4cc(C)c(C)cc4c3=O)C(=O)N2c2nc(C)c(C)s2)c1 (configuration not stated),nt,-1.8%,nt,nt,8%,nt,14%,?
CC(C)NC(=O)C1CCN(C2CCN(Cc3ccc4cccc(F)c4n3)CC2)CC1,0%,nt,-1%,-11%,-17%,nt,nt,nt
Cc1sc2nc(SCCO)n(-c3ccccc3)c(=O)c2c1C,-2%,nt,9%,16%,-19%,nt,nt,nt
CC(Sc1nnc2ccccn12)C(N)=O (configuration not stated),-3%,nt,nt,18%,1%,2%[46.1 µM],nt,?
CCCn1c(SCC(O)c2cccc(OC)c2)nc2ccccc21 (configuration not stated),nt,-3.8%,nt,nt,-3%,-6%[46.1 µM],3%,3%[46.1 µM]
CC(C)(C)NC[C@H](O)COc1cccc2[nH]c(=O)[nH]c12,nt,3.2%,nt,nt,-16%,nt,6%,1%&1%
O=C(COc1ccc(Br)cc1)NCCO,-2%,-3.5%,12%,4%,-1%,18%,?,?
Cc1ccc(C(OCC(O)CNC(CO)C(O)c2ccc([N+](=O)[O-])cc2)c2ccccc2)cc1 (configuration not stated),4%,nt,17%,0%,-17%,7%[46.1 µM],nt,?
O=C(O)/C=C/c1cccnc1,0%,nt,-1%,-7%,-15%,nt,nt,nt
Cc1cc(C)nc(SCC(=O)N/N=C\C(Br)=C\c2ccccc2)n1,0%,-7.1%,0%,-28%,?,-7%,6%,-26%
CCOC(=O)C1=C(N)c2ccccc2CC1C1CCCC1 (configuration not stated),-3%,nt,-5%,?,?,nt,nt,1%
Cc1ccccc1-c1nc(CN2CCC(C(=O)NC(C)C)CC2)c(C)o1,nt,2.9%,nt,nt,-13%,7%[46.1 µM],-8%,8%[46.1 µM]
CCC1=NN2C(=N)/C(=C\c3ccc(SCc4ccco4)o3)C(=O)N=C2S1,3%,-12%,-6%,-9%,31%[activator],14%,7%,20%
O=C(CSc1nc(=O)n(CCCN2CCOCC2)c2c1CCC2)Nc1ccccc1F,-2%,nt,nt,-29%,23%,-3%,nt,-7%[46.1 µM]
CCCCC(=O)Nc1ccc(NCc2ccc(C)s2)cc1,0%,nt,-3%,-12%,3%,nt,nt,nt
Cc1c(N(C(=O)Nc2ccccc2)C2=NCC(C)S2)c(=O)n(-c2ccccc2)n1C (configuration not stated),8%,5.0%,-9%,5%,1%,-1%,4%,1%
C#Cc1ccc([C@@H]2C=C(C(=O)O)O[C@H](OCCCCO)C2)cc1,0%,nt,5%,2%,-12%,nt,nt,nt
COc1cc(C(CC(=O)Nc2cccc(C(C)=O)c2)N2Cc3ccccc3C2=O)cc(OC)c1OC (configuration not stated),nt,-8.8%,nt,nt,43%[activator],1%[46.1 µM],?,nt
COc1ccccc1NC(=O)CCN1C(=O)C2C3CCC(C3)C2C1=O (configuration not stated),-3%,nt,11%,-38%,-16%,?,nt,6%
Cc1ccc(CNC(=O)c2ccccc2N)cc1,-1%,-2.4%,-2%,-3%,17%,31%[14.3 µM],-8%,14%
COc1ccc(S(=O)(=O)Nc2ccccc2C(=O)N2CCCC2)cc1C,1%,nt,6%,-11%,37%[activator],1%,nt,-22%[46.1 µM]
CC(C)(C)C(=O)NCCc1nc2ccccc2n1CC(=O)c1ccccc1,-3%,0.3%,16%,3%,-15%,0%,7%,-10%
CCN(Cc1nc(-c2cccc(C)c2)no1)C(=O)c1ccco1,-4%,nt,-1%,10%,25%,-10%,nt,0%[46.1 µM]
Cc1cccc(C(=O)NCC(=O)OCC(=O)c2cc(C)n(CC3CCCO3)c2C)c1 (configuration not stated),0%,nt,nt,0%,3%,?,nt,-1%[46.1 µM]
CCOCCCn1c(SCC(=O)Nc2ccc3[nH]c(=O)[nH]c3c2)nc2ccccc2c1=O,-1%,nt,nt,1%,-21%,5%,nt,-6%
COC(=O)c1ccc(C2CC(=O)Nc3cc(OC)c(OC)cc32)cc1 (configuration not stated),3%,-0.7%,-4%,13%,nt,-20%,-6%,11%
COc1ccc2c(c1)C=C(CN1CCN(C(C)C)C(CCO)C1)CO2 (configuration not stated),1%,nt,2%,-6%,-5%,-15%[46.1 µM],nt,3%[46.1 µM]
Cc1ccc(NC(=O)CSc2nc3ccc(Br)cc3[nH]2)c(C)c1,nt,-7.9%,nt,nt,2%,11%[46.1 µM],1%,-21%[46.1 µM]
CC1CCCCC1NC(=O)COC(=O)C12CC3CC(CC(Cl)(C3)C1)C2 (configuration not stated),2%,nt,nt,29%,-21%,3%,nt,2%[46.1 µM]
CCCc1cc(=O)[nH]c(SCc2nc(-c3ccccc3)no2)n1,nt,1.7%,nt,nt,-8%,-1%[46.1 µM],6%,nt
CCC(Sc1ncccc1C(=O)OC(C)C)C(=O)NCc1ccco1 (configuration not stated),1%,0.3%,-6%,-5%,-10%,15%,-3%,?
O=C(NCCNCc1ccccc1)c1ccco1,nt,nt,nt,-6%,11%,20%,nt,-2%[46.1 µM]
NCCNS(=O)(=O)c1cccc2c(Cl)cccc12,nt,-1.6%&-5.5%&-6.6%,-4%,nt,-12%,-29%,-5%&4%&-2%,11µM*
C=CCNC(=O)CC(=O)N/N=C/c1cccs1,1%,nt,1%,-2%,-2%,nt,nt,nt
CN(C)c1nc(N)ncc1-c1ccc(Oc2ccccc2)cc1,-3%,nt,-14%,1%,-11%,-3%[46.1 µM],nt,-9%[46.1 µM]
O=C(NC(=S)N1CCN(C/C=C/c2ccccc2)CC1)c1ccco1,1%,nt,4%,8%,2%,nt,nt,nt
C=CCN(CC(=O)NCc1ccc(F)cc1)C(=O)c1csnn1,2%,-0.9%,-28%,-3%,15%,-3%,0%,-3%[46.1 µM]
O=C(c1ccco1)N1CCN(C2CCCC2)CC1,-2%,-2.3%,22%,8%,-4%,12%,-5%,?
O=C1CCC(=O)N1c1ccc(NCc2ccccc2Cl)c([N+](=O)[O-])c1,2%,-6.3%,6%,-5%,-33%,-14%,3%,-1%
Cc1ccc(-c2nc(N)sc2CC(=O)OCC(=O)NC2CCCC(C)C2C)cc1 (configuration not stated),2%,-14%,13%,nt,18%,-29%,?,-20%
CC1CCCCN1C(=O)CSc1nnc(-c2ccc(Cl)s2)o1 (configuration not stated),6%,-1.1%,-51%,-4%,13%,6%,7%,28%
S=C(NCCSCc1ccc(Cl)c(Cl)c1)Nc1ccccc1,nt,nt,nt,-26%,13%,?,nt,?
COc1ccccc1CN(Cc1cc2cc(C)ccc2[nH]c1=O)Cc1nnnn1Cc1ccco1,-3%,-20%,5%,-10%,?,?,-8%,13µM*
# Additional structures
SMILES,SARS PLP yeast,Cruzain inh Det,NS1 function inh,RE007 growth inh,2A StopGo,LASV entry inh,Cruzain noTriton,Marburg entry inh
O=C(C=Cc1ccccc1)c1cc(Br)ccc1O,nt,nt,nt,-23%,?,?,nt,-2%
Cc1cn2c(=O)cc(COC(=O)c3ccccc3F)nc2s1,nt,-1.2%,nt,nt,21%,?,-7%,nt
CCNC(=O)c1cnc2sc(N3CCC(C)CC3)nn2c1=O,nt,-9.2%,nt,nt,8%,27%[46.1 µM],-14%,nt
CN(C)c1ccc(NC(=O)COC(=O)c2cc(=O)c3ccccc3o2)cc1,28%,-6.5%,9%,2%,-4%,-3%,-14%,-2%
O=c1c(Cc2c(F)cccc2Cl)c(O)ccn1CC1CCCO1 (configuration not stated),12%,nt,4%,-2%,8%,-10%[46.1 µM],nt,1%[46.1 µM]
CCOC(=O)c1cc(CN2CCOCC2)oc1-c1ccccc1,10%,3.5%,-11%,-7%,1%,4%,9%,4%
COc1ccc(NC(=O)CSc2nc3ccccc3nc2N2CCCC2)cc1Cl,4%,nt,-1%,-5%,-15%,nt,nt,nt
